FGF22 binding: binders of recombinant human FGF22 by thermal shift. Q9HCT0. SYPRO orange fluorescence; percent of sucrose octasulfate shift, DMSO zero. calls only at 9.99 µM. actives 1.5% (n = 340,000);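 active means melting point raised past a set limit in the mean and every replicate; inconclusive means no clear call; three in four hits are not shown here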
Target sequence (Q9HCT0 whole entry, looked up): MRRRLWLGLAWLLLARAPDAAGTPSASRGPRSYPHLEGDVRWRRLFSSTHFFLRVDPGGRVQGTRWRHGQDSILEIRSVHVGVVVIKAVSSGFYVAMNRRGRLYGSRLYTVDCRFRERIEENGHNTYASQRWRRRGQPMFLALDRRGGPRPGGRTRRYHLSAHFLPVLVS
MLL AF4-AF9 inh: inhibitors of human MLL-AF4/AF9 interaction | P42568 | AlphaScreen, biotin-AF4 peptide binding to FLAG-AF9 | inhibition, % at 10 µM | actives 0.47% (n = 350,000);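 active means every replicate reaching a set inhibition limit, whatever the replicate mean, cut at about 25% in these data; inconclusive means mean inhibition reaches that limit but some replicates miss it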;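 further: 0% = plate neutral control median and 100% = total signal loss; the record names both 10 and 1 µM as test concentration; the first replicate is given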
Ecoli rRNA inh: selective bacterial rRNA inhibition in E. coli; E. coli WT GFP vs humanized-ribosome RFP mutants, fluorescence, 24 h; active compounds read low; DMSO median 0, no signal -100; GFP signal change (wild-type ribosome), % (no concentration beside the values); actives 1.6% (n = 350,000); AID 720706;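 active means significant combined selectivity score with lowered wild-type GFP, culture density cut under 30%, mutant RFP and density less affected; inactive means any of these conditions unmet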; further: one replicate is shown; some compounds called inactive have numbers as strong as hits
Vif TR-FRET: HIV-1 Vif–A3G interaction blockers – biochemical, TR-FRET, GST-Vif 1-94, biotin-A3G peptide, dose response retest, primary screen (AID 1117319); TR-FRET GST-Vif / biotin-A3G peptide binding; higher % means a stronger effect; test concentration not given here; strong numbers were not always called active; inhibition, %; hits with a dose series show IC50 in µM; actives 0.57% (n = 260,000);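 active means above the screen mean plus three standard deviations and confirmed in dose response; inconclusive means results disagree or hit not tested in dose response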;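 further: Vif residues 1-94 fused to GST binding biotinylated APOBEC3G peptide 110-148; 0% = full assay without inhibitor and 100% = GST in place of GST-Vif; retest series ran down from 100 µM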
ALR H2O2 inh: inhibitors of human sulfhydryl oxidase ALR; P55789; purified ALR, DTT oxidation, H2O2 HRP-luminol luminescence; inhibition, % (no concentration beside the values); actives 3.8% (n = 290,000); AID 485317;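 active means mean and each replicate at 75% or more; inconclusive means only one of the two met; inactive means neither met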;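 further: stock transfer was 7.5 nL into about 7.5 µL; 0% = neutral wells and 100% = wells with inactivated enzyme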
Target sequence (P55789 whole entry, looked up): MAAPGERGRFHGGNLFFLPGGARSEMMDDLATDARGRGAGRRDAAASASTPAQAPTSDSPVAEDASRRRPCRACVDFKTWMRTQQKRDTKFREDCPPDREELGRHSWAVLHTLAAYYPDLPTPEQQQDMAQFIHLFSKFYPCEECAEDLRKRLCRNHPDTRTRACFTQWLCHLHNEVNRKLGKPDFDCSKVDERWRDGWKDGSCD
E coli growth: blocks Escherichia coli growth; OD600, 23 h; active compounds read low; OD600 absorbance (concentration not given with the values); actives 0.21% (n = 330,000); AID 1053175;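 active means OD600 absorbance below the run mean of sample wells minus 3.6 SD, in any replicate, cut at about 0.56 in these data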;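 further: stock transfer was 300 nL into about 60 µL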
HNF4A DNA FP: change in binding of human HNF4 alpha to DNA. HNF4a-FITC DNA binding, fluorescence polarization, 1 h. AID 1224865. activity change, % at 10 µM. actives 0.3% (n = 360,000). P41235; in the data active means activity change above about 30%, passing the limit was not always enough;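 further: controls were the assay level and a saturating level of protein; the project sought stronger binding though the title names inhibitors; some compounds called inactive have numbers as strong as hits; positive values seem to mean higher polarization but the record does not say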
Target sequence (P41235 whole entry, looked up): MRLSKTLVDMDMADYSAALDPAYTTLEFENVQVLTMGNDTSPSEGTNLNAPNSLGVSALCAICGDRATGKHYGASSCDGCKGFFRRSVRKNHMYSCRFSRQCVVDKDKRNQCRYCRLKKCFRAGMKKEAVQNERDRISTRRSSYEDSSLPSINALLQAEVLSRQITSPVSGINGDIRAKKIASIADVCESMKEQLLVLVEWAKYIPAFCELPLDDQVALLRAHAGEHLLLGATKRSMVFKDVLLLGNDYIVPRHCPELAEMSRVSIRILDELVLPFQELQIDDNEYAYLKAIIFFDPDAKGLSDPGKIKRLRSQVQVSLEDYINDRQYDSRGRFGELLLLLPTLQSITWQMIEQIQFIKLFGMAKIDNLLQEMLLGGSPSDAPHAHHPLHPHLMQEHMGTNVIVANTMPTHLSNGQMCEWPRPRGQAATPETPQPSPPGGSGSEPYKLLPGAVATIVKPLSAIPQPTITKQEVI
Ecoli rRNA inh OD600: also measured in Ecoli rRNA inh; calls as there; OD600 change, %; measured here: OD600 growth;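 optical density of the mix in the first replicate; 0 = DMSO median and -100 = no signal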
Ecoli rRNA inh RFP: recorded beside Ecoli rRNA inh, whose call it bears; RFP signal change, %; measured here: RFP humanized mutant strains;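 first replicate; 0 = DMSO median and -100 = no signal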
* marks the source's active call; other numbers are inactive results; i = inactive; ? = inconclusive; · = not tested or not shown. This is a subset (hit frequency here may not be typical).

SMILES | FGF22 binding | MLL AF4-AF9 inh | Ecoli rRNA inh | Ecoli rRNA inh OD600 | Ecoli rRNA inh RFP | Vif TR-FRET | ALR H2O2 inh | E coli growth | HNF4A DNA FP
Cn1ncc([N+](=O)[O-])c1C(=O)Nc1ccc(-c2nc3ccccc3o2)cc1 | i | -0.3 | 21 | 17 | -0.1 | 5% | · | · | -3.2
C[C@@H]1CN([C@@H](C)CO)C(=O)c2cccc(NC(=O)Nc3ccc4c(c3)OCO4)c2O[C@@H]1CN(C)Cc1ccncc1 | i | -2.4 | 1 | 5 | -0.3 | · | · | · | ·
COCCN1C=C(C(=O)OC)C(c2cc(Br)c(OC)c(OC)c2)C(C(=O)OC)=C1 | · | · | · | · | · | 0% | 7 | 0.76 | -2.5
COc1ccc(-c2noc(N3CCC(C(=O)Nc4ccc(F)cc4F)CC3)n2)cc1 | i | -2.1 | -1 | 6 | 1.9 | · | 0 | 0.71 | 0.2
CC(C)Cn1c(N)c(C(=O)CSc2nncs2)c(=O)n(C)c1=O | i | -1.6 | 0 | -3 | 1.5 | · | 2 | 0.65 | -4.8
COc1ccc(NC(=O)CSc2nc3ccccc3n2-c2ccccc2)c([N+](=O)[O-])c1 | i | 5.0 | 1 | -2 | -3.2 | 5% | 0 | 0.73 | -0.1
CC(C)N(C(=O)CSc1nnc(Cc2ccc3c(c2)OCO3)n1C)C(C)C | i | 3.4 | 8 | 1 | -0.9 | 2% | 1 | 0.67 | 4.0
CCn1c(CCNC(=O)c2cccs2)nnc1SCC(=O)Nc1cccc(Cl)c1 | · | · | · | · | · | 13% | -9 | 0.69 | 1.5
C[C@H](CO)N1C[C@H](C)[C@@H](CN(C)CC2CC2)Oc2c(NC(=O)C3CCOCC3)cccc2C1=O | i | -4.0 | 3 | 8 | -3.7 | · | · | · | ·
CCCS(=O)(=O)NC(=O)C1(C)CCCN(C(=O)C(C)(C)Oc2ccc(Cl)cc2)C1 (stereo not drawn) | i | -15 | 0 | -14 | -3.5 | · | · | · | 1.6

Four entries from above, with the structure last:
FGF22 binding	MLL AF4-AF9 inh	Ecoli rRNA inh	Ecoli rRNA inh OD600	Ecoli rRNA inh RFP	Vif TR-FRET	ALR H2O2 inh	E coli growth	HNF4A DNA FP	compound
i	-1.6	0	-3	1.5	·	2	0.65	-4.8	CC(C)Cn1c(N)c(C(=O)CSc2nncs2)c(=O)n(C)c1=O
i	5.0	1	-2	-3.2	5%	0	0.73	-0.1	COc1ccc(NC(=O)CSc2nc3ccccc3n2-c2ccccc2)c([N+](=O)[O-])c1
i	3.4	8	1	-0.9	2%	1	0.67	4.0	CC(C)N(C(=O)CSc1nnc(Cc2ccc3c(c2)OCO3)n1C)C(C)C
·	·	·	·	·	13%	-9	0.69	1.5	CCn1c(CCNC(=O)c2cccs2)nnc1SCC(=O)Nc1cccc(Cl)c1

Later entries:
SMILES | FGF22 binding | MLL AF4-AF9 inh | Ecoli rRNA inh | Ecoli rRNA inh OD600 | Ecoli rRNA inh RFP | Vif TR-FRET | ALR H2O2 inh | E coli growth | HNF4A DNA FP
Cc1cc(C)c(OCCCCN(C)Cc2ccccc2)c(C)c1 | i | 1.9 | -28 | -37 | -5.2 | · | 5 | 0.64 | -0.6
Cc1ccc(NC(=O)CS(=O)CC(=O)Nc2cnc3ccccc3c2)cc1Cl (stereo not drawn) | i | -1.2 | 0 | -7 | -1.0 | · | 5 | 0.68 | 3.0
O=S(=O)(Cc1cc(Oc2ccccc2)nc(-c2ccccc2)n1)c1ccccc1 | · | · | · | · | · | -1% | -4 | 0.8 | 1.5
C[C@H]1CN([C@@H](C)CO)C(=O)Cc2cc(NC(=O)Nc3ccc4c(c3)OCO4)ccc2O[C@@H]1CN(C)Cc1ccc2c(c1)OCO2 | i | 4.8 | -2 | 6 | 15 | · | · | · | ·
COc1cc2c(-c3ccccc3)c(C)oc2cc1/C=N/NC(N)=S | i | -0.1 | 7 | 12 | 1.0 | · | -4 | · | -2.7
COc1ccc(NC(=O)C2Cc3c(-c4ccccc4Oc4ccccc4)ccnc3O2)cc1OC (stereo not drawn) | i | 3.6 | -5 | 3 | 4.4 | · | · | · | 4.8
COc1ccc(-c2ccc(C#N)c(SCC(=O)NC3CC3)n2)cc1OC | i | -0.5 | 0 | -1 | 1.9 | · | -5 | 0.65 | -2.9
COc1ccc(OC)c(CCNC(=O)c2ccc(CS(=O)Cc3cccc(Cl)c3)o2)c1 (stereo not drawn) | i | 3.4 | -5 | -21 | -3.3 | · | -2 | 0.66 | -1.6
C[C@@H]1CN([C@@H](C)CO)C(=O)c2cc(NC(=O)C3CC3)ccc2O[C@H]1CN(C)C(=O)Nc1ccc2c(c1)OCO2 | i | -1.8 | 3 | 5 | -0.9 | · | · | · | ·
C/C=C/c1ccc([C@H]2[C@@H](CO)N(C(=O)C3CCCC3)C23CN(S(C)(=O)=O)C3)cc1 | i | -2.5 | -3 | 3 | -0.1 | · | · | · | ·
Cc1ccc2nc(SCC(=O)Nc3cc([N+](=O)[O-])ccc3F)[nH]c2c1 | · | · | · | · | · | 3% | 1 | 0.7 | 1.7
COCCCn1c(-c2ccc(OC)cc2)nc2c1c(=O)[nH]c(=O)n2Cc1ccccc1 | i | 0.2 | 1 | 7 | 1.4 | · | 0 | 0.73 | 1.0
CCCCC(=O)Nc1cnc(NC(=O)c2ccco2)cc1C | i | -1.8 | -21 | -31 | -5.4 | · | · | 0.64 | 4.3
CC1CN(c2nc3c(c(=O)n(Cc4ccc(Cl)c(Cl)c4)c(=O)n3C)n2C)CC(C)O1 (stereo not drawn) | · | · | · | · | · | 4% | -2 | 0.66 | 1.2
S=C(Nc1ccc(Cl)cc1)NC1CCN(Cc2ccccc2)CC1 | i | 7.9 | -5 | -16 | 1.6 | 1% | -3 | 0.69 | -0.2
O=C1N=C(N2CCCC2)S/C1=C\c1ccccc1 | · | · | · | · | · | 28% | · | 0.72 | -1.6
CN(CC(=O)Nc1ccc(F)cc1)C(=O)Cn1cnc2ccc([N+](=O)[O-])cc2c1=O | i | 1.8 | 18 | 8 | 1.3 | -1% | -26 | 0.65 | 1.2
CN(C(=O)COC(=O)c1cnc(Cl)c(Cl)c1)C1CCS(=O)(=O)C1 (stereo not drawn) | i | -3.7 | 4 | 3 | 0.8 | 3% | -5 | 0.68 | 0.9
O=C(Nc1c(C(=O)N2CCOCC2)oc2ccccc12)c1ccccc1Cl | i | 0.8 | 8 | 9 | 1.9 | · | 0 | 0.65 | 4.2
CC1(C)C(=O)OC(c2cccn2-c2ccc([N+](=O)[O-])cc2)C2(CCCCC2)C1=O (stereo not drawn) | i | -0.5 | · | · | · | · | -3 | 0.71 | 1.3
CCCCOC(=O)C1C2C=C[C@]3(CN(CCCOC)C(=O)[C@H]13)O2 (stereo partly drawn) | · | · | · | · | · | 4% | -17 | 0.74 | 0.3
CC(C)(C)C(=O)Nc1scc(-c2ccc(-c3ccccc3)cc2)c1C(=O)O | i | -9.6 | -13 | -40 | -1.2 | 1% | 50 | 0.63 | 3.0
COc1ccc(CC(=O)OCC(=O)N2CCN(S(=O)(=O)c3ccc(C)cc3C)CC2)cc1OC | i | -1.5 | -1 | -3 | 0.9 | 1% | · | 0.65 | -1.2
C=CCNc1nc(C2(C)CC3(CC(C)OC3=O)C(=O)O2)cs1 (stereo not drawn) | · | · | · | · | · | 27% | 2 | 0.66 | -2.2
Cc1cccc(C)c1NC(=O)CN(C)C(=O)CCc1nc2sc3c(c2c(=O)[nH]1)CCCC3 | i | -5.1 | 6 | 3 | -0.8 | · | -5 | 0.65 | 0.1
O=[N+]([O-])c1ccc2[nH]c3c(c2c1)CCCC3 | i | -0.2 | -30 | -55 | -10 | 5% | 98* | 0.62 | 1.8
Cc1ccc(NC(=O)C2CC(=O)N(CCc3ccccc3)C2)c(C)c1 (stereo not drawn) | i | 0.1 | 0 | 8 | 1.7 | 0% | -2 | 0.73 | 1.7
Cc1ccccc1-c1ccc([C@@H]2[C@H](CO)N3CCCCN(C(=O)Nc4ccccc4)C[C@@H]23)cc1 | i | 12 | -60 | -75 | -15 | · | · | · | ·
C[C@H](CO)N1C[C@H](C)[C@@H](CN(C)S(=O)(=O)c2ccc(F)cc2)Oc2ccc(NS(=O)(=O)c3ccc(F)cc3)cc2CC1=O | i | 3.9 | -4 | -9 | 1.2 | · | · | · | ·
CO[C@H]1CN(C)C(=O)c2ccc(NS(=O)(=O)c3ccc(C)cc3)cc2OC[C@H](C)N(C)C[C@H]1C | i | 0.1 | 2 | 0 | -2.2 | · | · | · | ·
CC(=O)N(C)C[C@H]1Oc2cc(-c3cccnc3)ccc2S(=O)(=O)N([C@@H](C)CO)C[C@H]1C | i | -0.1 | 6 | 11 | -4.3 | · | · | · | ·
Cc1ccc(C(=O)OCC(=O)NCc2cc(C)c(O)c(C)c2)cc1S(=O)(=O)N1CCCCC1 | i | 1.4 | -24* | -17* | -2.5* | -1% | 15 | 0.71 | 2.3
Cc1ccc(NC(=S)N(CCN(C)C)Cc2cccs2)cc1 | i | 2.5 | 4 | 5 | -0.7 | ? | -3 | 0.7 | 2.1
CCc1ccc(Nc2ncc3c(n2)CC(c2ccco2)CC3=O)cc1 (stereo not drawn) | · | · | · | · | · | 9% | -5 | 0.76 | 3.9
Cc1cccc(NC(=O)COc2ccccc2C)n1 | · | · | · | · | · | 20% | -5 | 0.65 | -1.1
C/C(CCc1ccc2c(c1)OCO2)=N\NC(=O)c1ccccc1Br | i | 1.4 | 8 | 4 | -2.8 | · | 1 | · | -4.4
COC(=O)[C@H]1C[C@H]1[C@@H](NC(=O)c1ccc[nH]1)c1ccccc1 | i | -4.1 | 10 | 15 | -0.7 | · | -24 | · | -5.0
O=C(NNc1nc(-c2ccccc2)cs1)c1ccco1 | · | · | · | · | · | · | 71 | 0.63 | 2.6
CCOC(=O)CCCCC(=O)c1[nH]c(=O)[nH]c1CSc1nnc2c3cc(Br)ccc3n(C)c2n1 | · | · | · | · | · | -6% | 19 | 0.65 | ·
O=C(NC1CCCCC1)N1CCN(c2ccccc2Cl)CC1 | i | -2.1 | 9 | 8 | -1.0 | · | 16 | 0.7 | -0.1
Cc1cc(O)c(C2(C(F)(F)F)NCCNC2=O)cc1C (stereo not drawn) | · | · | · | · | · | 6% | 2 | 0.69 | 0.1
COCCNC(=O)C[C@H]1C[C@@H]2c3cc(NC(=O)Nc4ccc(OC)cc4)ccc3O[C@@H]2[C@H](CO)O1 | i | -8.1 | 2 | 3 | -7.6 | · | · | · | ·
COc1ccc(CN(C)C[C@H]2Oc3ccc(NC(=O)C4CC4)cc3CC(=O)N([C@@H](C)CO)C[C@H]2C)cc1 | i | -1.9 | 1 | 5 | -3.0 | · | · | · | ·
C[C@H](O)C#Cc1ccc2c(c1)O[C@@H](CN(C)CC1CCCC1)[C@H](C)CN([C@H](C)CO)S2(=O)=O | i | 3.9 | 2 | -1 | -1.6 | · | · | · | ·
Cn1c(N)c(C(=O)COC(=O)CCCc2c[nH]c3ccccc23)c(=O)n(C)c1=O | · | · | · | · | · | -3% | 66 | 0.7 | -0.5

Reformatted: two of the compounds above.
Value order: FGF22 binding	MLL AF4-AF9 inh	Ecoli rRNA inh	Ecoli rRNA inh OD600	Ecoli rRNA inh RFP	Vif TR-FRET	ALR H2O2 inh	E coli growth	HNF4A DNA FP
> COCCNC(=O)C[C@H]1C[C@@H]2c3cc(NC(=O)Nc4ccc(OC)cc4)ccc3O[C@@H]2[C@H](CO)O1
 : i	-8.1	2	3	-7.6	·	·	·	·
> COc1ccc(CN(C)C[C@H]2Oc3ccc(NC(=O)C4CC4)cc3CC(=O)N([C@@H](C)CO)C[C@H]2C)cc1
 : i	-1.9	1	5	-3.0	·	·	·	·

Screening data deposited in PubChem by several laboratories.
